Screening results (PubChem BioAssay)
PMP22 txn prim – modulates PMP22 transcription in S16 Schwann cells | S16 Pmp22-F2sN Schwann cells (luciferase reporters placed in the Pmp22 gene), FLuc/NLuc coincidence luminescence, 24 h | Potency, µM (top dose mostly 57.5 µM), for inactives: at the highest dose activity change, negative = inhibition, usual class: inhibitors | 43,000 compounds, 2% hits; active = clear falling dose curves in both reporters; inconclusive = both reporters move, but less clearly or upward; inactive = either reporter flat; the % is the NLuc reporter signal; also: % is scaled to controls: 0 for no effect and ±100 for the full control effect; some results filed as inactive show a strong effect at the top dose
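Reporter cells (S16 Pmp22-F2sN, 500–1,000 per well) exposed to compounds for 24 h, 37C, 5% CO2; lysis with FLuc read after 10 min, then Stop&Glo and NLuc read after 10 min.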
HTT promoter inh – inhibits huntingtin promoter activity; HEK293 HTT promoter firefly luciferase reporter (activity 0% = vehicle and -100% = no light), 24 h; Potency, µM (doses to about 57.5 µM), without a hit: top-dose activity change, negative = inhibition, most hits filed as inhibitors; 48,000 compounds, 0.93% hits; active = well fitted inhibition curve with a large enough effect; inconclusive = small, poorly fitted or top-dose-only effect; inactive = no such curve, though single readings can be large or run the other way; also: nearly all actives have a fitted effect of over 50% in size
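HEK293 Fluc reporter, 2,500 cells/well, 24 h pre-culture; cpds up to 57.5 uM final, 24 h 37 degrees C; Dual-Glo, 10 min RT; normalized vehicle = 0%, zero RLU = -100%.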
* = called active by the depositor; ? = inconclusive; . = not tested or not shown; [ ] = remark or other dose. Potency is read from the fitted curve at half-maximal effect. Some of the compounds tested; rates above refer to the full screens.

Molecule	PMP22 txn prim	HTT promoter inh
COc1ccc(C(CC(=O)NCc2ccccc2Cl)N2Cc3ccccc3C2=O)cc1OC (configuration not stated)	-1%	-21%
COc1ccc(Cn2cc(C(=O)c3ccc(Cl)cc3)c(=O)c3cc4c(cc32)OCO4)cc1	-14%	-25%
COc1ccccc1CNC(=O)Cc1c(C)c2cc3c(C)coc3c(C)c2oc1=O	?	-9%
COCCNC(=O)CN1C(=O)COc2ccc(S(=O)(=O)N3CCCCCC3)cc21	4%	-13%
O=C(NCc1ccccc1F)c1cc2ccccn2n1	-22%	54%[activator]
COc1cc(NC(=O)C2=C(C)Nc3nnnn3C2c2ccc(SC)cc2)c(OC)cc1Cl (configuration not stated)	-12%	-3%
CCC1CN(C(=O)N2CCC(C(=O)N3CCN(c4ccccc4F)CC3)CC2)c2ccccc2O1 (configuration not stated)	4%	?
CO[C@H]1C=CO[C@@]2(C)Oc3c(C)c(O)c4c(O)c(c(C=NN5CCN(C)CC5)c(O)c4c3C2=O)NC(=O)C(C)=CC=C[C@H](C)[C@H](O)[C@@H](C)[C@@H](O)[C@@H](C)[C@H](OC(C)=O)[C@H]1C	.	-4%[19.1 µM]
Cc1cccc(N(C)C(=O)CN2C(=O)COc3ccc(S(=O)(=O)N4CCCCCC4)cc32)c1	-13%	-19%
COc1ccc(NC(=O)C(Cc2ccccc2)NS(=O)(=O)c2ccc3c(c2)CCN3C(C)=O)cc1 (configuration not stated)	10%	-12%
Cc1ccc(C)c(S(=O)(=O)c2cn(C)c3cc(F)c(F)cc3c2=O)c1	1%	-10%
CCC(C)S(=O)(=O)c1oc(-c2ccc(F)cc2)nc1S(=O)(=O)c1ccc(F)cc1 (configuration not stated)	2.5µM*	?
CS(=O)(=O)n1nc(-c2ccco2)nc1NCc1ccccc1Cl	7%	12%
CC(C)c1ccc(NC(=O)CSC2=Nc3ccccc3C3=NC(CCC(=O)NCc4cccs4)C(=O)N23)cc1 (configuration not stated)	?	?
Cc1ccc(C(=O)Nc2ccc(-c3nc4ccccc4o3)cc2)cc1Cl	-5%	28%
CC(C)c1nc2ccc(C(=O)NCc3ccccc3Br)cc2o1	-38%	-8%
O=C(NCCN1CCN(c2ccccc2)CC1)Nc1cccc(Br)c1	-7%	-27%
COC(=O)c1ccccc1NC(=O)C1CCCN(c2ncnc3onc(C)c23)C1 (configuration not stated)	-9%	-6%
CCSc1nc2c([nH]c3ccccc32)c(=O)n1CC	-14%	-15%
O=C(Nc1ccccc1Br)c1cc(S(=O)(=O)NC2CCCCC2)ccc1F	-3%	?

Some of the entries so far, with two lines to a compound.
Results follow in this order: PMP22 txn prim | HTT promoter inh
CCC(C)S(=O)(=O)c1oc(-c2ccc(F)cc2)nc1S(=O)(=O)c1ccc(F)cc1 (configuration not stated)
  2.5µM* | ?
CS(=O)(=O)n1nc(-c2ccco2)nc1NCc1ccccc1Cl
  7% | 12%
CC(C)c1ccc(NC(=O)CSC2=Nc3ccccc3C3=NC(CCC(=O)NCc4cccs4)C(=O)N23)cc1 (configuration not stated)
  ? | ?
Cc1ccc(C(=O)Nc2ccc(-c3nc4ccccc4o3)cc2)cc1Cl
  -5% | 28%

More records follow.
Molecule	PMP22 txn prim	HTT promoter inh
COc1ccc(C(=O)Nc2ccc(S(=O)(=O)N(Cc3ccccc3)c3ccccc3)cc2)cc1	-20%	5µM*
COc1ccccc1NC(=O)CSc1nc2ccccc2c(=O)n1CCC(=O)NC1CCCCC1	-5%	5%
CCc1ccc(NC(=O)c2sc3nc(-c4ccccc4)cn3c2C)cc1	-25%	-23%
O=C(NCc1ccccc1)c1cc2sccc2n1Cc1ccc(Cl)cc1	-22%	-7%
CC1CCN(C(=O)c2cccc(NC(=O)c3nsc4ccccc34)c2)CC1	?	39%[activator]
CCN1CCN(C(c2ccc(Cl)cc2)c2c(O)cc(C)n(CCOC)c2=O)CC1 (configuration not stated)	-8%	-10%
Cc1ccc(CN(Cc2ccco2)C(=O)COc2ccccc2C)cc1	?	-25%
O=C(Nc1cccc(NC(=O)c2ccc(Br)cc2)c1)c1ccccc1	-1%	-5%
O=C(Cc1ccccc1)Nc1sc2c(c1C(=O)Nc1ccccc1Cl)CCCCC2	?	-13%
Cc1ccc(/C=C/c2onc(C)c2S(=O)(=O)N2CCC(C(=O)Nc3cc(F)ccc3F)CC2)cc1	-16%	-11%
CCOc1ccc(NC(=O)C2=C(C)C(=O)OC23CCC(C)CC3)cc1 (configuration not stated)	-4%	-8%
Cc1ccc(Nc2cc(C)nc3nncn23)c(C)c1	-7%	-21%
Cc1cc(C)c2oc(-c3ccc(C)c(NC(=O)/C=C/c4ccco4)c3)nc2c1	-56%	-1%
CCOC(=O)c1cc(S(=O)(=O)NCc2ccccc2)[nH]n1	1%	0%
COc1ccc(C2c3c(n(C)c4ccccc34)C(=O)N2CC(=O)Nc2ccc(C)c(Cl)c2)cc1 (configuration not stated)	11%	?
COc1cccc(N2CCN(C(=O)c3nn(C)c4c3CSc3ccc(C)cc3-4)CC2)c1	-25%	-15%
CC(=O)c1ccc(NS(=O)(=O)c2ccc3[nH]c4c(c3c2)CCCCCC4)cc1	-15%	?
Cc1nn2c(=O)cc(COC(=O)c3ccccc3NC(=O)COc3ccccc3C)nc2s1	-1%	-17%
CCOCCCNC(=O)C(c1ccccc1)N(Cc1cccs1)C(=O)c1ccc(NC(C)=O)cc1 (configuration not stated)	-29%	-9%
CCc1ccc(C2Sc3ccccc3NC3=C2C(=O)c2ccccc23)cc1 (configuration not stated)	?	?

The results go on:
Molecule	PMP22 txn prim	HTT promoter inh
COc1ccc(NC(=O)CCS(=O)(=O)c2nc(-c3ccc4c(c3)OCO4)cc(C(F)(F)F)n2)cc1	?	28%
COc1ccc(-n2ncc3c2ncn2nc(-c4ccc(Cl)cc4Cl)nc32)cc1	12%	-16%
CCCCC1CCC(C(=O)N2CC(=O)Nc3ccc(Cl)cc3C2c2ccc(F)cc2)CC1 (configuration not stated)	?	?
O=C(Nc1cc(F)ccc1F)c1cnn2c(C(F)F)cc(-c3ccccc3)nc12	-24%	-8%
O=C(O)Cn1nnc(-c2ccc(OCc3cccc(C(F)(F)F)c3)cc2)n1	-13%	-7%
Cc1ccc(Oc2nc3c(c(=O)n(Cc4ccccc4)c(=O)n3C)n2C)cc1C	?	-15%
O=C(Nc1ccc(Br)cc1)C1CCCN(S(=O)(=O)c2ccc(Br)s2)C1 (configuration not stated)	?	-15%
CCOc1ccccc1CNc1nc2nc(C)cc(C)n2n1	-20%	-2%
COC(=O)c1scc(-c2ccc(C)cc2)c1S(=O)(=O)Nc1cc(Cl)ccc1C	-47%	-31%
CCOc1ccc(CNC(=O)c2ccc3c(c2)N(CC)CCS3)cc1	-23%	-3%
CCCC(=O)Nc1ccc2nn(-c3ccc(CC)cc3)nc2c1	-10%	38%[activator]
CCCCN(C)CCCNC(=O)CN1N=C(c2ccc(OC)cc2)CCC1=O	13%	-5%
CCCCOc1ccc(C2C(=O)N(C3CCCCC3)CC(=O)N2C2CCCCC2)cc1 (configuration not stated)	6%	-6%
CC(=O)Nc1cccc(NC(=O)CSc2nccn2C2CCCC2)c1	?	?
COc1ccc(NC(=O)c2ccc3oc(=O)c(S(=O)(=O)c4ccc(C)cc4)cc3c2)cc1OC	-28%	-8%
CN1C(C(=O)Nc2ccccn2)=C(O)c2sc(Cl)cc2S1(=O)=O	.	?
O=C(CNC(=O)c1ccccc1F)OCc1cc(=O)n2nc(C3CCCCC3)sc2n1	?	6%
COc1ccccc1C(=O)Nc1nc2ccc(S(=O)(=O)N3CCCC3)cc2s1	9%	-14%
CC(C)CC(=O)Nc1nnc(S(=O)(=O)N(CC(C)C)c2ccccc2)s1	-21%	-12%
CCc1ccc(S(=O)(=O)c2nnn3c2nc(NC(C)C)c2sccc23)cc1	?	2%

An excerpt of these results, with two lines to a compound:
Values run as follows: PMP22 txn prim | HTT promoter inh
> COc1ccc(NC(=O)c2ccc3oc(=O)c(S(=O)(=O)c4ccc(C)cc4)cc3c2)cc1OC
→ -28% | -8%
> COC(=O)c1scc(-c2ccc(C)cc2)c1S(=O)(=O)Nc1cc(Cl)ccc1C
→ -47% | -31%

Continued.
Molecule	PMP22 txn prim	HTT promoter inh
COc1ccc(CNc2ncnc3onc(-c4ccc(F)cc4)c23)cc1	?	-28%
COc1ccc(CCNC(=O)c2ccc3c(c2)N(Cc2ccc(C)cc2)CCS3)cc1OC	?	?
CCOC(=O)c1cc2c(=O)n3ccccc3nc2n(CCOC)c1=NC(=O)c1c(-c2ccccc2Cl)noc1C	?	-9%
CC1(C)[C@@H](OC(=O)CCC(=O)O)CC[C@]2(C)[C@H]3C(=O)C=C4[C@@H]5C[C@@](C)(C(=O)O)CC[C@]5(C)CC[C@@]4(C)[C@]3(C)CC[C@@H]12	.	8%
CCCSc1nc2sc3c(c2c(=O)n1-c1ccc(C)cc1)CCCC3	-2%	-9%
CC(C(=O)NCCSCc1cccc(Cl)c1)N(c1ccccc1)S(C)(=O)=O (configuration not stated)	-10%	?
Cc1ccc2nc3c(cc(C#N)c(=O)n3-c3nnc(SCc4ccccc4Cl)s3)c(=O)n2c1	?	-6%
CCCCn1cc(S(=O)(=O)c2ccc(CC)cc2)c(=O)c2cc(F)c(N3CCCC(C)C3)cc21 (configuration not stated)	?	-4%
COc1ccc2c(CNC3CCCC3)c(C(=O)O)n(Cc3ccccc3C)c2c1	3%	4%
Cc1ccc2c(c1)-c1c(cnc3cc(-c4ccc(F)cc4)nn13)CO2	?	-7%
Cc1cccc(N2CCN(C(=O)CCc3nnc4n(CC(C)C)c(=O)c5ccccc5n34)CC2)c1C	?	-21%
COC(=O)c1c(NC(=O)C(C)Oc2ccc(Cl)c(C)c2)sc(C)c1C (configuration not stated)	6%	-15%
COc1ccc(C)c2sc(NC(=O)c3ccc(S(=O)(=O)N4CCCCC4)cc3)nc12	-28%	-5%
CC(=O)c1ccc(NC(=O)CCCc2nc(-c3cccc(C)c3)no2)cc1	8%	-10%
COc1ccc(CCN2C(=O)N(c3ccc(F)cc3)C(=O)C2CC(=O)Nc2ccccc2)cc1 (configuration not stated)	10%	?
O=c1c(NCCc2ccc(Cl)cc2)nccn1-c1ccccc1	7%	-30%
CCOc1cc(C(=O)Nc2ccc3nc(Nc4cccc(Cl)c4)cc(C)c3c2)cc(OCC)c1OCC	29%	-11%
COc1ccccc1NC(=O)c1oc2ccccc2c1NC(=O)Cc1cccs1	?	?
CCOc1ccc(NC(=O)c2cnn3c(C(F)F)cc(-c4ccc(C)cc4)nc23)cc1	-4%	-7%
O=C(NCc1ccc(Cl)cc1)C1CCN(C(=O)c2cnn(-c3ccccc3)c2-n2cccc2)CC1	?	?

(list continues)
Molecule	PMP22 txn prim	HTT promoter inh
COc1ccc(N2CCN(C(=O)c3ccc(NC(=O)c4nsc5ccccc45)cc3)CC2)cc1	-11%	?
CCCS(=O)(=O)N1CC(=O)N(c2ccc(Cl)cc2)C(C)(C(=O)NC2CCCC2)C1 (configuration not stated)	-12%	6%
O=C(Nc1ccccc1Cl)[C@H](CSCc1ccccc1)N1Cc2ccccc2C1=O	-20%	-29%
COCCCn1c(=N)c(C(=O)NC2CCCC2)cc2c(=O)n3cc(C)ccc3nc21	-5%	0%
CCOc1ccc(OCC)c(Nc2cc(C)nc3nc(-c4ccco4)nn23)c1	1%	-4%
CC(=O)c1ccc(N2CCN(C(=O)NCc3noc4ccc(C)cc34)CC2)cc1	5%	-30%
Clc1ccc(NCc2nc3ccccc3n2CCOc2ccccc2)cc1	?	-27%
O=C(Cn1c(=O)oc2cc(S(=O)(=O)N3CCCC3)ccc21)Nc1ccc(OC(F)(F)F)cc1	-12%	?
Cc1cccc(N2CCn3c2nc2c3c(=O)n(CCCc3ccccc3)c(=O)n2C)c1	6%	-4%
CCOc1cccc(C2c3[nH]c4ccccc4c3CCN2C(=O)CCC2CCCC2)c1 (configuration not stated)	-5%	?
C=C(C)Cn1c(=O)c2c(nc3n2CCN3c2ccc(CC)cc2)n(C)c1=O	-22%	0%
Cc1ccc(CCNC(=O)c2cc3sccc3n2Cc2ccc(F)cc2)cc1	?	-22%
CCc1ccc(CNC(=O)CCCN2C(=O)CCn3nc(-c4cccn4C)cc32)cc1	?	1%
Cc1cccc(NC(=O)C(=O)NCCc2csc(-c3ccc(C(F)(F)F)cc3)n2)c1C	-32%	4%
CCn1cc(C(=O)N2CCN(c3cc(Cl)ccc3C)CC2)c(=O)c2cc(S(=O)(=O)N3CCOCC3)ccc21	-28%	-16%
CCN(C(=O)c1coc(=O)c2ccccc12)c1ccccc1C	1%	-10%
O=C(Nc1ncc(Cc2ccccc2Cl)s1)c1ccc2c(c1)CC(c1ccccc1)OC2=O (configuration not stated)	-11%	?
CCOC(=O)c1c(C)[nH]c(C)c1S(=O)(=O)N1CCCC(C(=O)Nc2ccc(F)cc2F)C1 (configuration not stated)	?	-8%
